Ecoli growth = E. coli growth inhibition, primary screen, OD600. actives 0.21% (n = 330,000). OD600 absorbance (test concentration not listed). Escherichia coli growth, 23 h; active compounds read low. AID 1053175, 2014;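 active = OD600 absorbance below the run mean of sample wells minus 3.6 SD, in any replicate, cut at about 0.56 in these data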;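 note: stock transfer was 300 nL into about 60 µL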
LANA-H2B inh = blockers of LANA interaction with H2A/H2B – biochemical, FP readout, HTS, primary screen | cell-free LANA-H2A/H2B peptide, fluorescence polarization | inhibition, % (test concentration not listed) | actives 0.6% (n = 320,000); in the data active = inhibition mostly above about 10%, no sharp cut-off; inactive = mostly below about 6.7%;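 note: stock transfer was 7.5 nL into about 10 µL; 0% = median of vehicle wells and 100% = median of positive control wells; one replicate is shown; the record names a cut of 25% in any replicate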
FGF22 binding = binders of human FGF22 protein, primary screen, FGF22 synaptogenesis inhibitor project, biophysical, thermal shift, single point | recombinant FGF22 thermal shift, SYPRO orange fluorescence; percent of sucrose octasulfate shift, DMSO zero | actives 1.5% (n = 340,000) | calls only at 9.99 µM | AID 651658, 2012;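 active = melting point raised past a set limit in the mean and every replicate; three in four hits are not shown here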
UCH37 DUB inh = inhibitors of human UCH37 deubiquitinase, primary screen, biochemical, Ub-AMC cleavage, fluorescence | actives 0.33% (n = 330,000) | Ubiquitin carboxyl-terminal hydrolase isozyme L5 (Homo sapiens), Q9Y5K5 | purified proteasome/UCH37 | inhibition, % (test concentration not listed);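 active = mean of two replicates above 20%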;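 note: 0% = compound-free wells with enzyme and 100% = wells lacking proteasome; stock transfer was 100 nL into about 20 µL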
Target sequence (Q9Y5K5 whole entry, looked up): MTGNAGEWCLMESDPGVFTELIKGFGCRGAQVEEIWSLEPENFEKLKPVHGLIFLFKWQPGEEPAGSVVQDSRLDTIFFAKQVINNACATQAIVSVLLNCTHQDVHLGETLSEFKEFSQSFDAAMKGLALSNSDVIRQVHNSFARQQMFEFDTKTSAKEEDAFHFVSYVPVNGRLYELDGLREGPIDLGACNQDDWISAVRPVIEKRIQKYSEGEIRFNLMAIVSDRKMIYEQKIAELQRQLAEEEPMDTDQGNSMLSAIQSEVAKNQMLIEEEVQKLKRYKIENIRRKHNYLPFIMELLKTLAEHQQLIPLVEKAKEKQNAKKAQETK
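Material: Human UCH37 enzyme supplied as purified proteasome complex | Schedule: 30 min preincubation with enzyme, 25 min cleavage at room temperature | Detection: AMC fluorescence 355/460 nm | Measure: % inhibition of Ub-AMC cleavage fluorescence | Controls: Wells without proteasome as full block, compound-free enzyme plus substrate as uninhibited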
B2AR ag = beta2AR agonists driving receptor internalization, primary screen, cell-based, FAP fluorogen, flow cytometry; Am2.2-beta2AR cells; reference of the scale not given here; response, % (concentration not given with the values); actives 0.43% (n = 340,000); AID 504454, 2011;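 active = response above a set limit, near 3 SD of response in nonfluorescent compounds, cut at about 42% in these data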;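 note: stock transfer was 100 nL into about 11 µL; a reference agonist was the positive control; negative values mostly stem from fluorescent compounds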
Target sequence (P07550 whole entry, looked up): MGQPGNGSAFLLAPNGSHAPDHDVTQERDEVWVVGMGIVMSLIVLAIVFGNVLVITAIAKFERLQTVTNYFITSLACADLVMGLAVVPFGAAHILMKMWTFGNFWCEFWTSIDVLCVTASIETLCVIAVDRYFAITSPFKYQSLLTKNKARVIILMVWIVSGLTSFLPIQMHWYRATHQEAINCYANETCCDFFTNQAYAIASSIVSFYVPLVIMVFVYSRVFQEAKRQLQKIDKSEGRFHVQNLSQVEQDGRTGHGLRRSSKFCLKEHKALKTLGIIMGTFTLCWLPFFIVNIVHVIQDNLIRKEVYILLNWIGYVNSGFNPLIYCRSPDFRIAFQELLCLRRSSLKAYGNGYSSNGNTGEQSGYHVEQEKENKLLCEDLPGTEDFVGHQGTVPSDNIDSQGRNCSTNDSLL
HNF4A DNA FP = change in binding of human HNF4A to DNA, primary screen, biochemical, fluorescence polarization, FITC-DNA; 1 h; Hepatocyte nuclear factor 4-alpha (Homo sapiens), P41235; AID 1224865, 2016; actives 0.3% (n = 360,000); activity change, % at 10 µM; in the data active = activity change above about 30%, passing the limit was not always enough;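 note: controls were the assay level and a saturating level of protein; the project sought stronger binding though the title names inhibitors; some compounds called inactive have numbers as strong as hits; positive values seem to mean higher polarization but the record does not say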
ALR inh = inhibitors of human ALR sulfhydryl oxidase, primary screen, biochemical, H2O2 detection, HRP-luminol luminescence, single point | FAD-linked sulfhydryl oxidase ALR (Homo sapiens), P55789 | purified ALR, DTT oxidation | inhibition, % (test concentration not listed) | actives 3.8% (n = 290,000) | AID 485317, 2010;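 active = mean and each replicate at 75% or more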;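 note: stock transfer was 7.5 nL into about 7.5 µL; 0% = neutral wells and 100% = wells with inactivated enzyme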
Target sequence (P55789 whole entry, looked up): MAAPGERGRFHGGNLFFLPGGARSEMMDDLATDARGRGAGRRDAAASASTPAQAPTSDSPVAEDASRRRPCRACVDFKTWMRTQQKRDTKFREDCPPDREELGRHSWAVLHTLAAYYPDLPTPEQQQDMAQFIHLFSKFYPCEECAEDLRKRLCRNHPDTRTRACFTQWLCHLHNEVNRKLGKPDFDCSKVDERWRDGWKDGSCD
Starred values were filed as active, the others as inactive; i = inactive; x = not tested or not shown. Not all compounds are listed (hit frequency here may not be typical).

SMILES	Ecoli growth	LANA-H2B inh	FGF22 binding	UCH37 DUB inh	B2AR ag	HNF4A DNA FP	ALR inh
CCOc1ccc(/C=N/N2C(=O)C(CC(=O)Nc3ccc(F)cc3F)SC2=NC)cc1OC (centres undefined)	x	5.9	i	x	16.2	1.5	-7.6
CC1(C)CC(NC(=O)COc2ccc3c4c(c(=O)oc3c2)CCCC4)CC(C)(C)N1	0.675	4.0	i	-31.8	-6.3	4.5	-0.1
CCOc1ccc(NS(=O)(=O)c2ccc3c(c2)CCN3C(=O)C2CCC2)cc1	0.683	-1.2	i	0.4	-15.8	-1.1	2.1
COc1ccc(NC2=NCC(=O)N2c2ccccc2)c(OC)c1	0.747	0.0	x	-2.0	4.8	-2.9	-3.3
COC(=O)CN(C)C(=O)c1ccccc1OC1CCN(S(C)(=O)=O)CC1	0.724	2.7	i	5.2	11.7	0.3	x
Cc1cc(N2C(=O)c3ccc(C(=O)Nc4ccccc4O)cc3C2=O)no1	0.695	1.4	i	4.3	7.1	1.4	25.4
CC(C)(C)c1ccc(/C=C2\CCn3c2nc2cc(C(=O)O)ccc2c3=O)cc1	0.646	-4.0	x	-64.4	10.9	3.2	x
O=C(/C=N/O)NCC1CCNCC1	x	-1.6	x	x	-1.0	2.7	11.2
O=c1c2ccccc2nnn1CSc1nnc(-c2cccnc2)n1-c1ccccc1F	0.625	0.2	x	-0.9	-6.2	-0.5	0.2
CCOc1ccc(N2C(=O)Nc3ccc(Br)cc3C2(O)C(=O)NCCCN(C)C)cc1 (centres undefined)	0.667	-1.0	i	5.7	0.9	-3.1	1.3
CCCCn1c(SCC(=O)N2CCC(C)CC2)nc2ccsc2c1=O	0.676	2.7	x	1.5	-8.1	-1.7	-4.9
Cc1ccccc1OCC1CN(CN2CCOCC2)C(=O)O1 (centres undefined)	0.755	23.5*	x	-0.5	-4.4	-0.2	-6.2
CCCCn1c(=O)c(CCC(=O)OCC(=O)Nc2cccc3ccccc23)nc2ccccc21	0.651	-0.7	i	-0.4	-10.2	-4.5	-4.6
O=C(COC(=O)c1ccccc1C(=O)N1CCN(c2ccccc2)CC1)NCc1ccccc1	0.717	-0.8	i	0.0	2.9	-5.6	53.1
O=C(NCc1nnc(SCC(=O)N2CCCC2)o1)c1c(F)cccc1Cl	0.732	-0.1	x	-1.5	0.5	3.3	-0.9
CCOc1cccc(C2C(C(=O)c3ccc(C)o3)=C(O)C(=O)N2Cc2ccncc2)c1 (centres undefined)	0.681	-1.7	x	8.4	4.3	-2.1	0.5
CCC(c1nnnn1C1CCCCC1)N(Cc1ccco1)Cc1cc2ccc(OC)cc2[nH]c1=O (centres undefined)	0.776	x	x	-5.1	-9.4	1.2	x
COCc1ccccc1C1=CC(=O)C[C@H](c2ccc(OC)cc2)C1	x	0.7	i	5.2	0.1	0.3	-2.6
Cc1ccc(S(=O)(=O)N2CCN(C(=O)COC(=O)CCOc3ccc(C(C)(C)C)cc3)CC2)cc1	0.699	0.8	x	0.9	-14.7	0.2	8.7
COc1ccc(C2(C)NC(=O)N(CC(=O)Nc3ccc(Br)cc3F)C2=O)cc1OC (centres undefined)	0.675	-2.9	i	0.5	-6.3	1.6	-2.4
COc1cccc(-c2ccc(NC(=O)C3CCCN(Cc4cnc(N(C)C)s4)C3)cc2)c1 (centres undefined)	0.708	0.4	i	2.8	11.6	3.8	-3.0
CN(CCOc1ccccc1)CC(O)COCc1ccccc1F (centres undefined)	0.662	0.8	i	4.4	-3.0	0.4	-7.8
O=C(OCCCc1cc2ccccc2c(=O)o1)c1ccc2c(c1)OCO2	0.674	3.7	i	-2.4	-1.1	-0.2	-3.0
Cc1ccc(NC(=O)CSc2nc(=O)n(CCN(C)C)c3c2CCCC3)cc1Cl	0.679	5.8	i	7.3	26.6	5.2	98.1*
CCOC(=O)Cc1csc(NS(=O)(=O)c2cc(Cl)ccc2Cl)n1	0.645	8.8	i	2.7	0.3	-3.6	-4.5
COc1cccc(NC(=O)CC2C(=O)NC3CCCCC3N2C(=O)c2ccccc2)c1 (centres undefined)	x	0.8	i	x	2.0	-2.3	-0.4
CC(C)[C@H](NC(=O)N1c2ccccc2NC(=O)[C@@H]1C(C)C)C(=O)N[C@@H](C(=O)O)c1ccccc1	0.737	-1.2	i	-1.4	-7.5	-0.6	-0.6
O=C(NCc1nnc2c3ccccc3c(-c3ccccc3)nn12)c1ccc(Cl)cc1	0.637	1.8	i	1.1	-15.3	3.5	-9.0
COC(=O)/C=C1\NC(=O)C(C)S1 (centres undefined)	x	4.6	i	8.3	-0.9	-1.5	3.1
Nn1c(COc2ccccc2)nnc1SC(F)F	0.689	0.0	x	4.4	-0.9	1.3	-9.0

Structural class: the entries above containing a Cl atom.
SMILES	Ecoli growth	LANA-H2B inh	FGF22 binding	UCH37 DUB inh	B2AR ag	HNF4A DNA FP	ALR inh
O=C(NCc1nnc(SCC(=O)N2CCCC2)o1)c1c(F)cccc1Cl	0.732	-0.1	x	-1.5	0.5	3.3	-0.9
Cc1ccc(NC(=O)CSc2nc(=O)n(CCN(C)C)c3c2CCCC3)cc1Cl	0.679	5.8	i	7.3	26.6	5.2	98.1*
CCOC(=O)Cc1csc(NS(=O)(=O)c2cc(Cl)ccc2Cl)n1	0.645	8.8	i	2.7	0.3	-3.6	-4.5
O=C(NCc1nnc2c3ccccc3c(-c3ccccc3)nn12)c1ccc(Cl)cc1	0.637	1.8	i	1.1	-15.3	3.5	-9.0

(cont.)
SMILES	Ecoli growth	LANA-H2B inh	FGF22 binding	UCH37 DUB inh	B2AR ag	HNF4A DNA FP	ALR inh
CN1CCC(N(C)C(=O)c2ccc(Cl)c(S(=O)(=O)N3CCc4ccccc43)c2)CC1	0.62	2.1	i	2.4	17.9	-2.9	-6.3
COc1ccc(Cl)cc1NC(=O)COC(=O)CCCC1=NS(=O)(=O)c2ccccc2N1	0.678	4.4	i	2.5	4.2	-6.8	1.2
Cc1nc(N2CCN(C(=O)c3ccc(Cl)cc3)CC2)c(C#N)c2c1COC(C)(C)C2	0.832	-1.6	x	-36.2	10.7	0.7	0.0
CCC1CCCCN1C(=O)c1cc(COc2ccc(-n3cncn3)cc2)on1 (centres undefined)	0.716	0.0	x	2.0	-12.8	3.5	-1.9
Nc1nc(/C=C/c2cccnc2)nc(-c2ccccc2O)n1	0.723	7.1	i	4.3	13.8	4.4	94.0*
CCOc1ccc(NCc2cccn2-c2nnc(N3CCC(C(=O)NCCCN4CCCCC4CC)CC3)s2)cc1 (centres undefined)	0.696	-0.2	i	1.2	8.6	7.7	99.2*
CSc1nccc(-c2cc(Cl)sc2Cl)n1	0.768	x	x	2.2	-3.0	3.3	x
Cc1cc(=O)cc(C)[nH]1	0.675	1.0	x	-0.9	7.8	-2.1	-15.3
O=C(CSc1ncnc2sccc12)N1CCCCC1	0.674	-1.1	i	0.0	-6.0	3.4	0.2
O=C(Cn1c(=O)[nH]c2sc3c(c2c1=O)CCCC3)NCC1CCCO1 (centres undefined)	0.727	1.1	i	0.8	3.4	1.8	-0.5
Cn1cnnc1SCCC(=O)Nc1ccccc1	0.685	1.4	x	0.4	-2.0	-4.4	-32.3
CC(Sc1nnc(Cc2ccc3c(c2)OCO3)o1)C(N)=O (centres undefined)	0.691	-0.4	i	-0.9	5.8	-3.4	x
c1ccc(CC[C@@H]2CC[C@@H](CCc3ccccc3)N2)cc1	x	2.5	i	-1.4	-1.9	7.1	-2.5
CC(=O)Nc1nc(NCc2ccccc2Cl)n(-c2ccccc2)n1	0.658	3.2	i	1.4	-6.3	-1.1	17.3
COc1ccc(CCC(C)NC2C3CC4CC(C3)CC2C4)cc1 (centres undefined)	0.606	x	x	1.4	6.3	1.3	x
COc1ccc(NS(=O)(=O)c2cc(NC(=O)CNC(=O)c3cccc(OC)c3)ccc2C)cc1	0.675	5.4	i	0.5	-3.0	1.3	4.7
CCOC(=O)CCn1nnc(N)n1	0.72	1.9	x	1.9	-2.9	7.6	0.5
Cn1nc([N+](=O)[O-])c(C(C#N)c2ccccn2)c(Cl)c1=O (centres undefined)	0.682	19.6	i	-6.7	26.6	-1.0	23.8
CCCN(CCC)S(=O)(=O)c1ccc(C(=O)N2CCN(C)CC2)cc1	0.607	-1.3	i	1.0	-5.2	-0.9	-1.1
COc1ccc(C2CCCN2CC(O)COc2ccccc2C(C)C)cc1 (centres undefined)	0.62	0.4	i	3.0	4.8	1.0	x
O=C(NNc1c(F)c(F)cc(F)c1F)c1ccco1	0.699	-5.7	i	-0.1	1.7	2.1	-0.8
Cc1ccc(S(=O)(=O)N2CCN(Cc3ccccc3C(F)(F)F)CC2)cc1	0.697	2.0	x	4.1	6.3	1.7	x
Cc1cccc2nc(-c3ccco3)oc(=O)c12	0.678	6.9	i	2.2	-8.8	-2.2	-4.1
CN(C)CCCn1c2c(c(SCC(=O)Nc3nccs3)nc1=O)CCC2	0.682	6.0	i	2.7	-2.2	2.6	98.8*
OCCN1C2=NCCCN2c2ccccc21	0.693	4.9	i	2.1	3.9	3.4	-7.7
CC(NC(=O)c1ccc(N(C)C)c([N+](=O)[O-])c1)c1ccc(-n2ccnc2)cc1 (centres undefined)	0.728	-1.6	i	2.4	7.4	2.8	-1.0
CCCn1c(SCC(=O)c2cc(OC)ccc2OC)nnc1-c1ccco1	0.706	-0.8	x	5.2	-3.9	3.7	-5.9
Cc1ccc(C(=O)NCCOC23CC4CC(CC(C4)C2)C3)cc1	0.666	-1.9	i	2.9	-3.1	2.2	-3.6
CCN(CC)c1ccc(CN(C(=O)c2ccco2)C2CCS(=O)(=O)C2)cc1 (centres undefined)	0.682	-0.8	i	3.6	14.0	0.1	98.9*
O=C(O)CCCNC(=O)CCCn1nnc2ccccc2c1=O	0.734	10.6	i	3.1	9.0	3.5	x
O=C(Nc1cc(Cl)ccc1-n1cncn1)c1cccc(S(=O)(=O)N2CCOCC2)c1	0.69	-3.5	i	0.4	-3.6	1.4	-1.3
COc1ccc(C(c2c(O)nc[nH]c2=O)c2c(O)nc[nH]c2=O)cc1	0.719	-4.7	x	3.7	x	x	-4.3
CC(=O)NCC(O)c1ccc([N+](=O)[O-])cc1 (centres undefined)	0.637	-2.1	i	2.0	-4.7	0.0	0.9
O=C(ON=C1CCN(c2ccc([N+](=O)[O-])cc2)CC1)c1ccccc1	0.663	4.1	x	4.8	3.9	0.4	-14.4
O=c1cc(-c2ccccc2)c2ccccc2[nH]1	0.668	-2.1	x	-3.1	-9.4	-2.5	-18.8
COC(=O)c1c(NS(=O)(=O)c2ccc3ccccc3c2)sc2c1CCCC2	0.75	-9.4	x	4.3	3.2	-1.1	1.5
N#CC1=C(N)Oc2c(ccc3ccccc23)C1c1ccsc1 (centres undefined)	0.646	-5.7	x	-0.8	27.2	8.5	-60.2
Cc1nc2c(c(C)nn2-c2ccccc2)c(C)c1Cl	0.732	4.9	i	-5.5	2.7	-0.5	x
Cc1ccccc1C1CC(c2cccs2)=NN1S(C)(=O)=O (centres undefined)	0.672	-0.8	i	2.4	6.5	14.1	-6.1
COC(=O)c1cn(C)c2ccc(S(=O)(=O)N3CCCCC3)cc2c1=O	0.73	x	x	4.6	-15.6	-0.8	x
Cc1cccn2c(=O)c3cc(C(=O)NCCN4CCOCC4)c(=N)n(CCN4CCOCC4)c3nc12	x	-0.6	i	x	-10.0	0.0	4.6
CCN1C(=O)c2ccc(C(=O)Nc3cccc(C(=O)O)c3)cc2C1=O	0.659	-1.5	i	2.5	-2.0	2.0	3.3
CC1Cc2ccccc2N1CC(=O)Nc1ccc(S(=O)(=O)N(C)C)cc1 (centres undefined)	0.694	2.6	i	2.4	2.1	0.1	-4.3

High-throughput results: PubChem, several laboratories
